Rango-impB inh – Rango-importin beta binding inhibition; Q14974; Rango CFP/YFP FRET sensor + importin beta, 45 min; Potency, µM (top dose mostly 92.2 µM), for the others: top-dose inhibition of complex formation; hit rate 0.031% among 340,000; AID 540263; active = rising FRET ratio curve, often small or poorly fitted; inconclusive = mostly compound fluorescence or quenching in the first reads; inactive = flat curves in all reads;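 further: potency means the concentration at half of the fitted maximal effect; 0% = DMSO wells and 100% = buffer wells lacking importin beta; nearly all actives have a fitted effect of over 15% in size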
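Inhibition scored from the CFP 486 nm/YFP 530 nm FRET ratio 45 min after adding 0.125 microM importin beta to 50 nM Rango biosensor preincubated 5 min with compound (room temperature, PBS with DTT, Tween-20, BSA). No-importin wells as positive control.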
miR-21 reporter – miR-21 reporter, rising signal; HeLa miR-21 FLuc reporter, luciferase, 48 h; Potency, µM (titrated, usually from 38.3 µM), for the others: at the highest dose reporter change, positive = more light; 340,000 tested, under 10 active; active = well fitted rising curve with a large enough effect; inconclusive = small, poorly fitted or top-dose-only effect; inactive = no such curve, though single readings can be large or run the other way;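 further: % of control where 0% means no effect; miR-21 action dims this reporter so a rising signal means less miR-21 action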
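Luminescence from a firefly luciferase reporter carrying a miR-21 binding site downstream, stably expressed under a CMV promoter in HeLa cells that make miR-21 endogenously, reports miRNA modulation after 48 h compound exposure up to approximately 40uM final.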
Rango dissoc inh – inhibition of RanGTP-driven Rango-importin beta dissociation; Biochemical FRET Rango-importin beta, RanGTP-induced dissociation; Potency, µM (series often up to 46.1 µM), without a hit: top-dose activity change, negative = inhibition; hit rate 0.071% among 340,000; AID 540253; active means falling FRET ratio curve, often poorly fitted, with flat reads before Ran was added; inconclusive means other falling curves, or compound fluorescence or quenching; inactive means flat or rising ratio curve;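 further: potency means the concentration at half of the fitted maximal effect; % of control where 0% means no effect; nearly all actives have a fitted effect of over 45% in size; -100% = wells without RanGTP and RCC1; the record marks most hits as doubtful in a second field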
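Compounds preincubate 5 min with complex of recombinant Rango and importin beta in PBS with 1 mM DTT. Ran (0.6 uM) loaded with 2 mM GTP plus 0.2 uM RCC1 starts dissociation; FRET is recorded 45 min later.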
GLA inh pH 4.5 – blocks human alpha-galactosidase A at pH 4.5 | P06280 | purified enzyme, 4-MU-alpha-Gal fluorescence, pH 4.5 | activity change, negative = inhibition, % at 105 µM | 230,000 tested, under 10 active | AID 1467; inconclusive = small, poorly fitted or top-dose-only inhibition, or a rising curve; inactive = flat fitted curve, though single readings scatter; no compound was filed as active;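 further: 0% = full activity with enzyme and -100% = basal without enzyme; dose as in the result columns while the protocol names 77 µM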
Target sequence (P06280 whole entry, looked up): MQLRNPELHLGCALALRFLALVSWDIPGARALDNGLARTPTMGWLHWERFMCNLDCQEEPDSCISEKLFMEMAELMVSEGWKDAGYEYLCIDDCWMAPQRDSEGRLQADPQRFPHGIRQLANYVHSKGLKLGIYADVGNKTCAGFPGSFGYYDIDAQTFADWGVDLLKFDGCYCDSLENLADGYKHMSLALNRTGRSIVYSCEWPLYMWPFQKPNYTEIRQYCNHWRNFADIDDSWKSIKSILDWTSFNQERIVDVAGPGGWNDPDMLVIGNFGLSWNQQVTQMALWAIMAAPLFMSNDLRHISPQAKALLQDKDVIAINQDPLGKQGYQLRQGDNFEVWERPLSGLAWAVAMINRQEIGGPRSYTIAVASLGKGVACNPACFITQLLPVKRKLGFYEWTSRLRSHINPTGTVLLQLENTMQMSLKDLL
Numbers without * were called inactive; ? = inconclusive; . = no result given; & = joins results of further samples; [ ] = another dose, or the depositor's remark. The list is partial; the hit share may differ from the screen's.

molecule | miR-21 reporter | Rango dissoc inh | GLA inh pH 4.5 | Rango-impB inh
CCC1CCc2c(sc(NC(=O)c3ccoc3C)c2C(N)=O)C1 (centres undefined) | -23% | 0% | -2 | -2.4%
COc1ccc(NC(=O)CSc2nc(NS(=O)(=O)c3ccccc3)cc(=O)[nH]2)cc1 | -8% | 8% | -4 | -7.9%
O=C(NCCCl)NNc1c(Cl)cc(Cl)cc1Cl | -1% | -7% | 13 | -1.1%
CCOc1ccc(S(=O)(=O)Nc2cc(SCC(=O)O)c(O)c3ccccc23)cc1 | ? | -4% | . | 3.1%
Cc1cc(C)n(-c2nc(NCc3cccnc3)c3c4c(sc3n2)COC(C)(C)C4)n1 | 8% | 0% | 10 | -3.8%
COc1ccc(C(=O)N[C@H](C(=O)OCn2nnc3ccccc3c2=O)C(C)C)cc1 | . | -6% | . | -3.0%
Cc1ccc(S(=O)(=O)/N=C/c2ccco2)cc1 | -6% | 2% | 6 | 0.3%
O=C(NCC(c1ccc(F)cc1)N1CCOCC1)c1c(F)cccc1F (centres undefined) | -3% | -7% | 8 | -2.9%
O=C1Nc2cc(C(=O)N3CCN(c4ccc(F)cc4)CC3)ccc2NC1CSCc1cccc(F)c1 (centres undefined) | 5% | -11% | . | 0.0%
CN(C)c1ccc(SC#N)cc1 | 3% | 1% | -8 | -0.5%

Compounds above that contain nitrogen in an aromatic ring:
molecule | miR-21 reporter | Rango dissoc inh | GLA inh pH 4.5 | Rango-impB inh
COc1ccc(NC(=O)CSc2nc(NS(=O)(=O)c3ccccc3)cc(=O)[nH]2)cc1 | -8% | 8% | -4 | -7.9%
Cc1cc(C)n(-c2nc(NCc3cccnc3)c3c4c(sc3n2)COC(C)(C)C4)n1 | 8% | 0% | 10 | -3.8%
COc1ccc(C(=O)N[C@H](C(=O)OCn2nnc3ccccc3c2=O)C(C)C)cc1 | . | -6% | . | -3.0%

(further entries)
molecule | miR-21 reporter | Rango dissoc inh | GLA inh pH 4.5 | Rango-impB inh
COc1ccc2cc(C(C)C(=O)N3CCC(C(N)=O)CC3)ccc2c1 (centres undefined) | 6% | -21% | . | -0.4%
CCN1CCN(C(=S)NCCOC)CC1 | 0% | ? | 5 | -1.9%
O=c1ccc(-c2ccccc2)nn1Cc1ccc(F)cc1 | -19% | 13% | . | -1.5%
CC(NC(=O)C1CCN(C(=O)c2ccc(F)cc2)CC1)c1ccc(S(N)(=O)=O)cc1 (centres undefined) | . | 3% | . | -2.1%
CN(CC(=O)Nc1ccccc1Cl)C(=O)COC(=O)CNC(=O)c1ccc(Br)o1 | . | -15% | . | -4.2%
NC(=O)C1CCN(C(=O)C2CC(=O)N(c3ccc(F)cc3)C2)CC1 (centres undefined) | -1% | 0% | . | 0.9%
COc1ccc(N(CC(=O)Nc2cccnc2)S(C)(=O)=O)cc1 | -1% | -13% | 3 | 0.1%
O=S(=O)(c1ccc(SCc2ccccc2)nc1)N1CCCCCC1 | . | 24% | . | -1.0%
CNC(=S)NCCN1CCOCC1 | 2% | 6% | -5 | 5.3%
CCCCN(C(=O)c1ccccc1Br)C1CCS(=O)(=O)C1 (centres undefined) | . | 0% | . | -2.5%
Cc1ccc(-n2nc3ccc(N)cc3n2)cc1C | -3% | ? | . | ?
CCC(C)[C@H](NC(=O)N1CC(=O)Nc2ccccc21)C(=O)N[C@H](C(=O)O)c1ccccc1 (some centres undefined) | 0% | -16% | . | 4.6%
CCn1c(=O)c(C(C)=O)c(O)c2ccccc21 | 0% | -15% | -4 | -2.7%
Cc1ccc(S(=O)(=O)NCc2ccncc2)cc1C(=O)NCC(C)C | 8% | 0% | . | 0.3%
Cc1ccc(S(=O)(=O)c2nnn3c2nc(Nc2cccc(C)c2)c2ccccc23)cc1 | 4% | -6% | 8 | -3.5%
COc1ccc(C(=O)Nc2nnc(S(=O)(=O)Cc3ccc(F)cc3)s2)cc1 | -1% | -10% | . | ?
COc1ccccc1-n1c2c(cc(C(=O)N3CCC(C)CC3)c1=O)C(=O)CC(C)(C)C2 | -3% | 2% | 0 | 3.2%
Cc1ccc(C(=O)OCN2C(=O)c3ccccc3C2=O)cc1S(=O)(=O)N1CCOCC1 | . | -1% | . | -3.4%
Nc1ccc(S(=O)(=O)Nc2cnc3ccccc3n2)cc1 | -5% | 15%&-4% | 6&2&3 | -1.9%&-0.3%
CCC(C)(C)NC(=O)C(c1ccccc1F)N(Cc1ccco1)C(=O)Cn1nnc2ccccc21 (centres undefined) | -1% | 1% | 1 | -0.9%
CNC(=O)c1ccsc1NC(=O)C1CCCN1S(=O)(=O)c1cccs1 (centres undefined) | . | -14% | . | 0.9%
O=C(NC1(O)C(=O)c2ccccc2C1=O)c1c(Cl)cccc1Cl | 18% | 14% | 1 | -4.1%
O=C(Oc1ccc(Br)cc1)c1n[nH]c(=O)c2ccccc12 | 1% | -2% | -1 | -0.8%
COCc1cc(C)nc(SCC[N+](C)(C)CC(=O)Nc2cccc(C(F)(F)F)c2)c1C#N | 5% | 0% | -6 | 0.5%
CCOc1ccc(CCNC(=O)COC(=O)/C=C/c2ccco2)cc1OCC | -3% | 15% | . | 0.4%
NC(=S)N=Nc1c(O)cc(O)c2[nH]c(=O)ccc12 | . | -11% | . | ?
CCc1ccc(OCCCC(=O)NCc2ccco2)cc1 | -6% | -4% | 6 | 1.4%
CN(C)CCN(Cc1cccs1)c1ccccn1 | -6% | 1% | -1&-14&-7 | 0.3%
CCOc1cc(/C=N/n2c(C)nc3sc(C)c(C)c3c2=O)ccc1O | -3% | 18% | 1 | 3.3%
Cc1ccc(NC(=O)c2nnn(CC(=O)Nc3ccc4c(c3)OCO4)c2N)cc1C | -27% | 8% | . | 0.3%
Cc1ccc(Cl)cc1NC(=O)NCc1ccccn1 | -4% | -12% | . | 5.4%
Cn1cc(CN(CCO)Cc2cccs2)c(-c2cccc(Cl)c2)n1 | 0% | -2% | . | 6.1%
C=CCSc1nc(N)c(C(=O)Nc2ccccc2OC)cc1C(=O)Nc1ccccc1 | -1% | -11% | 6 | 0.8%
COC(=O)c1cc(Br)c(=O)n(Cc2ccco2)c1 | 0% | -8% | 4 | -0.2%
CC(C#N)Sc1ccc(S(=O)(=O)N2CCCC2)cn1 (centres undefined) | . | 1% | . | -2.7%
CCN(CC)S(=O)(=O)c1ccc(N=Nc2c(N)[nH]c(=O)[nH]c2=O)cc1 | 1% | 1% | -9 | -1.1%
O=C(C1CC(Cl)CN1S(=O)(=O)c1ccc(Cl)cc1)N1CCOCC1 (centres undefined) | 0% | 4% | 2 | -1.4%
Cc1cnc(C(=O)OCC(=O)c2cc(C)n(C)c2C)cn1 | 0% | -1% | 2 | 1.0%
CN(C(=O)COC(=O)c1sc2ccccc2c1Cl)C1CCCCC1 | 1% | 3% | -4 | ?
O=c1n(Cc2ccccc2)c2cc(Cl)cnc2n1Cc1ccccc1 | -6% | 7% | -14 | -5.1%
CC(=O)c1cccc(N(C(=O)CS(=O)CC(=O)Nc2ccc(F)cc2)C(C(=O)NC2CCCCC2)c2ccc(C)o2)c1 (centres undefined) | 0% | 8% | 5 | -0.3%
COC(=O)c1cn(NC(=O)Cc2cccc(C(F)(F)F)c2)c(=O)c2ccccc12 | -2% | 0% | -2 | ?
COc1ccc(C(=O)/C=C/c2cc(C(=O)O)cc3c2OCOC3)c(O)c1 | -15% | -8% | -3 | -0.8%
CCOc1cc(C(=O)Nc2cc(C)ccn2)cc(OCC)c1OCC | 14% | -12% | 2 | -1.7%
CC(=O)Nc1ccc(S(=O)(=O)NCC(CCC(=O)O)C(F)(F)F)cc1 (centres undefined) | 0% | -11% | -2 | -0.7%
O=C(CN1CCN(c2ncccn2)CC1)Nc1ccccc1-n1cccc1 | 16% | -16% | -3 | 5.3%
N#CC1C(=O)c2ccccc2C1c1ccccc1 (centres undefined) | . | 1% | . | 2.6%
CC(CNC(=O)c1ccc(N)cc1)NC(=O)c1ccc(N)cc1 (centres undefined) | -1% | 2% | -11[21.1 µM] | 2.1%
C/C(CC1(O)C(=O)N(Cc2ccccc2)c2ccccc21)=N\O (centres undefined) | -2% | 15% | 9 | 1.2%
COc1ccccc1OCC(O)CNCc1ccc2c(c1)OCO2 (centres undefined) | -8% | 9% | -2 | -1.9%

The results go on:
molecule | miR-21 reporter | Rango dissoc inh | GLA inh pH 4.5 | Rango-impB inh
CCCN(CC(=O)Nc1cc(C)on1)CC(=O)Nc1ccc(F)c(F)c1F | . | -2% | . | -2.1%
CCCCN(c1ccccc1)S(=O)(=O)c1cccc2cccnc12 | 3% | 5% | -16 | -3.3%
Fc1ccc(CN2CCN(C(=S)NCCc3ccccc3)CC2)c(Cl)c1 | 29% | -16% | 1 | 5.3%
CCC(C(=O)NCCCN1CCCC1=O)n1c2ccccc2c2nc(=O)cc(C)n21 (centres undefined) | 0% | 1% | . | ?
CCN1C(=O)C2C(c3ccc(O)c(OC)c3)NC(C)(C(=O)OC)C2C1=O (centres undefined) | -4% | -9% | 14 | 1.3%
COc1cc(C(=O)OCC(=O)Nc2cc(C)on2)cc(OC)c1OC | -4% | 1% | 3 | -2.5%
CCOc1ccc(-c2nnc(-c3ccco3)o2)cc1OCC | -74% | 9% | -3 | 0.5%
CC(C)N(CCNC(=O)c1cn(C)c2ccc(S(=O)(=O)N(C)C)cc2c1=O)Cc1ccccc1 | -9% | -5% | -8 | 0.6%
Cc1ccc(NC(=O)c2ccc(CSc3ccccn3)cc2)c(O)c1 | -4% | 29% | -2 | 0.0%
COc1ccc(C(C(=O)NC(C)(C)C)N(CCO)C(=O)CCC(=O)Nc2cc(C)on2)cc1 (centres undefined) | 0% | 3% | . | -0.4%
Cc1ccc(S(=O)(=O)NCc2ccc3[nH]c(C)cc3c2)cc1 | 19% | -10% | -4 | 0.7%
COc1cc(C(CC(=O)Nc2ccc(C)cn2)N2Cc3ccccc3C2=O)cc(OC)c1OC (centres undefined) | -2% | 17% | . | -2.5%
Cn1c(OCc2cccnc2)nc2c1c(=O)n(Cc1ccc(Cl)cc1)c(=O)n2C | . | 1% | . | -4.1%
CCOc1ccc2nc(N3CCCCCC3)sc2c1 | -46% | -15% | 0 | 6.7%
COc1cc(OC)cc(-c2nnc(SCC(=O)Nc3ccc(C(=O)O)cc3)s2)c1 | -2% | 8% | 2 | 0.7%
COc1ccc(-c2nc3ccccn3c2NCc2ccc3c(c2)OCO3)cc1 | -30% | ? | -1 | -16%
CCCCCN(C(=O)CCC(=O)OCC(=O)N(CC)c1ccccc1)c1c(N)n(CCCC)c(=O)[nH]c1=O | . | -1% | . | 2.8%
CC1(c2ccc([N+](=O)[O-])c(CS(=O)(=O)c3ccccc3)c2)OCCO1 | -2% | -8% | -15 | -0.2%
COc1cc(O)c(C(CC(=O)N2CCN(c3ccccc3)CC2)c2ccc3c(c2)OCO3)c(OC)c1 (centres undefined) | 12% | 19% | 0 | -0.1%
Cc1c(N2C(=O)c3ccccc3C2=O)c(=O)n(-c2ccccc2)n1C | -1% | -2% | 6 | -0.4%
CCOc1ccc(S(=O)(=O)N(C)CC(=O)NC2CCCC2)cc1 | -1% | -6% | . | -0.1%
N#CCCN1CCN(S(=O)(=O)c2ccc(S(=O)(=O)NC3CCCC3)cc2)CC1 | -3% | -11% | 3 | -3.7%
O=C(Cc1ccccc1)Nc1ccccc1C(=O)NCC1CCCO1 (centres undefined) | -10% | -11% | . | 0.0%
COc1ccccc1N1CCN(CCCCOc2c(OC)cccc2OC)CC1 | -8% | 16% | . | -4.3%
O=C(O)c1cc(-c2ccc(Cl)s2)[nH]n1 | -7% | -7% | -9 | 3.0%
O=C(N/N=C/c1ccc2c(c1)OCO2)c1ccc2c(c1)OCCO2 | -1% | -3% | -8 | 0.4%
CN(C)C(=O)c1ccc(NC(=O)c2cccnc2)cc1 | 0% | 6% | 2 | 7.0%
O=C(N/N=C/c1cc(Br)cc(Br)c1O)c1cccc(S(=O)(=O)N2CCOCC2)c1 | 0% | ? | 1 | ?
COC(=O)c1cc(S(=O)(=O)N2CCN(c3ccc([N+](=O)[O-])cc3)CC2)c[nH]1 | 17% | ? | . | 0.7%
Nc1c(Cl)ncnc1NCC(O)CO (centres undefined) | -1% | -4% | -2 | 0.7%
Cc1ccc(C)c(/C(O)=C2/C(=O)C(=O)N(CCN3CCOCC3)C2c2ccco2)c1 (centres undefined) | -7% | -15% | -5 | ?
